miR-21 FLuc – miR-21 reporter, rising signal | HeLa miR-21 FLuc reporter, luciferase, 48 h | Potency, µM (series often up to 38.3 µM), for inactives: at the top dose reporter change, positive = more light | 340,000 tested, under 10 active; active = well fitted rising curve with a large enough effect; inconclusive = small, poorly fitted or top-dose-only effect; inactive = no such curve, though single readings can be large or run the other way;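 also: % of control where 0% means no effect; miR-21 action dims this reporter so a rising signal means less miR-21 action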
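Using DMEM plus 10% FBS, HeLa miR-21-FLuc cells are incubated with test compounds (final up to about 40uM) for 48 hours; firefly luciferase signal is then imaged following reagent-mediated lysis.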
The depositor's hits bear a star; ? = inconclusive; [ ] = remark or other dose. Not all compounds are listed (hit frequency here may not be typical).

SMILES | miR-21 FLuc
Cc1cccc(N2CCN(C(=O)c3cc4c(=O)[nH]c5ccc(C)cc5c4s3)CC2C)c1 (stereo not drawn) | -1%
COc1ccc(CNC(=O)c2cnn(-c3ccc(C)cc3)c2C2CCN(C(=O)OC(C)(C)C)CC2)cc1 | 15%
COc1cccc(CNC(=O)CN2C(=O)N(c3ccc(C)cc3C)S(=O)(=O)c3ccccc32)c1OC | ?
COc1cc2c(cc1OC)C(c1ccc(F)cc1)N(c1ccc(F)cc1)C(=O)C2 (stereo not drawn) | -20%
CCN(C(=O)c1cc2c(s1)-c1c(C)cccc1OC2)c1ccccc1F | -23%
Cc1ccc(CNC(=O)c2cc(Sc3ccc(F)cc3F)nc3ccccc23)cc1 | -2%
O=C(CSc1nnc(-c2ccncc2)n1-c1ccccc1)Nc1ccc(Cl)c(Cl)c1 | -7%
COc1cccc(-n2c(=O)c3sc4ccccc4c3n(CC(=O)NC3CCCCC3)c2=O)c1 | -4%
CCc1ccccc1NC(=O)c1ccc(F)c(S(=O)(=O)N2CCN(c3ccccc3OC)CC2)c1 | 17%
Cc1cc(Cl)ccc1OCC(=O)N(Cc1ccco1)Cc1ccco1 | -4%
Cc1cc(C)cc(OCc2cc(=O)n3cc(C)sc3n2)c1 | -5%
Cc1ccc(C(=O)CSc2nc3cc(C(=O)NC4CCCC4)ccc3c(=O)n2CC2CCCO2)c(C)c1 (stereo not drawn) | 3%
CCOc1ccc(CCNC(=O)c2ccc(C)c(-n3c(C)nc4cccnc43)c2)cc1OCC | -5%
CCCOc1ccc(CNC(=O)C2CCN(C(=O)c3sccc3-n3cccc3)CC2)cc1 | 13%
COc1ccccc1CNC(=O)CCC1N=C2c3ccccc3N=C(SCc3ccccc3Cl)N2C1=O (stereo not drawn) | ?
Cn1c2ccccc2c2cnn(CC(=O)Nc3ccccc3F)c(=O)c21 | -5%
N#C/C(=C\c1ccccc1)C(=O)Nc1sc2c(c1C(N)=O)CCC2 | -14%
Cc1cccc(CC(=O)N2CC(=O)Nc3ccc(Br)cc3C2c2ccc(F)cc2)c1 (stereo not drawn) | ?
COc1ccccc1C(=O)NC1(C(F)(F)F)C(=O)NC(C)=C1C#N (stereo not drawn) | -14%
Cc1[nH]c2ccc(C(=O)Nc3ccc(F)cc3)cc2c1C | -49%
O=C(COc1ccccc1)NCc1ccc2c(c1)CCN2C(=O)c1ccc(Cl)cc1 | ?
Cc1nc2ccn(Cc3ccco3)c(=O)c2cc1C(=O)Nc1ccc(F)cc1 | 17%
CCc1cc(=O)oc2c(C)c3c(cc12)CN(CCc1ccccc1OC)CO3 | -8%
CCCOC(=O)CSc1ncnc2sc3c(c12)CCC(C)C3 (stereo not drawn) | -10%
O=c1n(Cc2ccccc2)nc2n1-c1cc(Cl)ccc1OC2 | -13%
COc1cc(Cl)c(C)cc1Nc1nnc(-n2nc(C)cc2C)c2ccccc12 | -5%
CNC(=O)c1c(NC(=O)c2ccc(S(=O)(=O)N3CCCC3)cc2)sc2c1CCN(C(C)C)C2 | -2%
COc1cc(Cl)c(NC(=O)c2cc(S(=O)(=O)N3CCOCC3)cn2C)c(OC)c1 | -14%
CCOc1ccc(C2CC(=O)Nc3c2c(=O)[nH]c2ncnn32)cc1 (stereo not drawn) | 0%
Cc1c(Cl)cccc1NC(=O)c1ccc2c(c1)CCN2S(=O)(=O)c1ccccc1 | 2%
N#Cc1ccc(C(=O)Nc2ccc(Cl)c(-c3nc4cc(Cl)ccc4o3)c2)c(F)c1 | 24%
O=C(COc1ccc(F)cc1)Nc1ccccc1C(=O)OCc1cc(=O)n2nc(C3CC3)sc2n1 | -11%
COC(=O)c1c(SC)nc2ccccc2c1OCc1ccc(Br)cc1 | -3%
Cc1ccc(NC(=O)/C=C/c2ccccc2Cl)cc1Cl | -46%
CCC1CN(C(=O)Nc2ccccc2C(F)(F)F)c2ccccc2S1 (stereo not drawn) | -4%
COc1ccccc1NC(=O)CSCc1cc(=O)c2cccc(Cl)c2[nH]1 | 2%
O=C(NCC1CCN(Cc2cccc(Cl)c2)CC1)Nc1cc(Cl)ccc1Cl | 27%
CCOc1ccc(-n2nc(CO)c(C(=O)NCCCc3ccccc3)n2)cc1 | 2%
Cc1ccc(CCNC(=O)c2ccc3c(c2)N(Cc2cccc(F)c2)C(=O)c2ccccc2S3)cc1 | 3%
Cc1ccc2cc3cc(C(=O)N4CCN(c5ccccc5)CC4)sc3nc2c1 | 0%
COc1ccc(C(c2c(O)cc(C)n(Cc3ccco3)c2=O)N2CCCCC2)cc1OC (stereo not drawn) | -1%
Cc1ccc(OCC(=O)Nc2ccc(OCc3cc(=O)n4ccsc4n3)cc2)cc1C | -3%
COc1ccc(OC)c(NC(=O)CN(C)S(=O)(=O)c2ccc(C(=O)N3CCOCC3)s2)c1 | -2%
COc1cc2c(cc1OC)[C@@H]1O[C@](c3ccsc3)(C2)Oc2cc(C)n(-c3ccccc3)c(=O)c21 | 0%[7.66 µM]
Cc1ccn2c(Nc3c(C)cccc3C)c(-c3ccsc3)nc2c1 | 8%
CCCCN1CC(c2nc3ccccc3n2CCCCOc2cc(C)cc(C)c2)CC1=O (stereo not drawn) | 1%
O=C(NC1CC(=O)N(c2ccc(F)cc2)C1)c1ccc(S(=O)(=O)N2CCCCC2)cc1 (stereo not drawn) | 5%
CCOc1ccc(-c2nn(-c3ccc(F)cc3)c3c2cnc2ccc(F)cc23)cc1 | -5%
Brc1cccc(-c2nnn3c2nc(NCc2ccc4c(c2)OCO4)c2ccccc23)c1 | -36%
Cn1c(=O)sc2cc(NS(=O)(=O)c3ccc(C(C)(C)C)cc3)ccc21 | -4%
CCc1ccc(Nc2nnc(-c3cc4cc(OC)ccc4oc3=O)s2)cc1 | 4%
CCN1CCN(c2nc3c(S(=O)(=O)c4ccc(Br)cc4)nnn3c3ccsc23)CC1 | -6%
COC(=O)c1sccc1S(=O)(=O)N(CC(=O)Nc1cc(C)ccc1C)c1ccc(C)c(C)c1 | 18%
Cc1ccccc1C(=O)Nc1nnc(S(=O)(=O)N2CCc3ccccc32)s1 | -4%
CN(C)C1(CNC(=O)COc2cccc(Cl)c2)CCCCC1 | -4%
Cc1csc2nc(-c3ccc(NS(=O)(=O)c4cccc(F)c4)cc3)cn12 | -18%
Cc1ccc(-n2ncc3c(N4CCN(C)CC4)ncnc32)cc1 | 24%
CCOC(=O)c1sc2cccc(F)c2c1S(=O)(=O)Nc1ccccc1F | 8%
COc1cc2ncc3c(-c4ccccc4)nn(-c4ccc(C)cc4)c3c2cc1OC | 2%
CCn1c(=O)cc(OCC(=O)N2CCN(c3ccc(C)cc3)C(C)C2)c2ccccc21 (stereo not drawn) | ?

Arranged by length of the SMILES (highest first): part of the list above
SMILES | miR-21 FLuc
Brc1cccc(-c2nnn3c2nc(NCc2ccc4c(c2)OCO4)c2ccccc23)c1 | -36%
Cc1csc2nc(-c3ccc(NS(=O)(=O)c4cccc(F)c4)cc3)cn12 | -18%
CCc1ccc(Nc2nnc(-c3cc4cc(OC)ccc4oc3=O)s2)cc1 | 4%

(continued)
SMILES | miR-21 FLuc
CCOc1ccc(CNC(=O)c2cc3c(=O)oc4ccc(C)cc4c3s2)cc1 | -3%
CCCNc1nc2c(c(=O)n(C)c(=O)n2C)n1CC(O)COc1ccccc1 (stereo not drawn) | -1%
O=C(Nc1ccccc1F)c1nc(SCc2ccc(F)cc2)ncc1Cl | -5%
CCc1ccccc1NC(=O)Cn1nnc(C(=O)NCc2ccco2)c1N | 21%
Cc1ccccc1NC(=O)Cn1c(SCC(=O)Nc2ccc(F)cc2)nc2ccccc21 | -1%
Cc1ccc(C2N3CC4(C)CN2CC(c2ccccc2)(C3)C4=O)cc1 (stereo not drawn) | 6%
CC1CCN(c2nc3c(S(=O)(=O)c4ccccc4)nnn3c3ccsc23)CC1 | 1%
CCOC(=O)c1c(C)[nH]c(C)c1S(=O)(=O)N(C)CC(=O)Nc1ccc(C)cc1C | 2%
Cc1ccc(N(C)C(CNS(=O)(=O)c2ccccc2)c2ccccc2)cc1 (stereo not drawn) | 19%
COc1ccc(-c2ccc(-c3noc(-c4cc(OC)cc(OC)c4)n3)c(OC)n2)cc1 | -19%
C=CCc1c(C)nc2nc(SCC(=O)Nc3ccc(C)c(C)c3)nn2c1C | 6%
CCOC(=O)c1cc2c(=O)n3ccccc3nc2n(Cc2ccco2)c1=NC(=O)c1cccc(F)c1 | 25%
COc1ccc(CCNC(=O)CCCn2c(=O)c3ccccc3n(Cc3c(C)cc(C)cc3C)c2=O)cc1OC | -2%
CC(C)Cn1c(-c2ccccc2Cl)nc2ccccc21 | 8%
COC(=O)c1c(NC(=O)c2cc(=O)c3cc(C)cc(C)c3o2)sc2c1CCC2 | 1%
Cc1ccc(-c2nnc(Nc3ccc(Br)cc3)c3ccccc23)cc1S(=O)(=O)N1CCN(C)CC1 | -1%
CC(C)N(Cc1ccccc1)C(=O)c1nc(-c2ccc(Cl)cc2)n2c1CCCCC2 | ?
CCCSC1=NC2(CCN(C(=O)NC3CCCCC3)CC2)N=C1c1ccc(Cl)cc1 | -1%
CCOc1ccc(NC(=O)CCn2cccn2)cc1 | -27%
C#CCn1c(C2CC(=O)N(c3ccc(OC)cc3)C2)nc2ccccc21 (stereo not drawn) | 4%
COc1ccc(Cl)cc1NC(=O)CSc1nnc(C)n2c1cc1occc12 | -3%
CCOc1ccc(-c2cn3c(n2)sc2cc(C(=O)NCCCN4CCCCC4)ccc23)cc1 | 2%
COc1ccccc1CNC(=O)c1cccc(N2CCCS2(=O)=O)c1 | -10%
CCOc1ccccc1C(=O)Nc1c(NC)c2ccccc2oc1=O | -9%
CCN(CC)CCCNC(=O)Cn1ncc2c3ccccc3n(Cc3ccccc3)c2c1=O | 5%
Cc1ccc(-n2nc(CO)c(C(=O)NC(C)CCCc3ccccc3)n2)cc1 (stereo not drawn) | 12%
COCCNC(=O)CCC(=O)N1Cc2cccc(OC)c2Oc2ncccc21 | -7%
COc1ccc(NC(=O)c2ccc(NC(=O)N3CCSc4ncccc43)cc2)cc1 | 0%
Cc1coc2c(C)c3oc(=O)c(CC(=O)NCCc4ccc(Cl)cc4)c(C)c3cc12 | 1%
Cc1ccc(C)c(N2CCN(C(=O)c3ccc(Nc4nc5ccccc5n5nnnc45)cc3)CC2)c1 | -4%
Cc1cccc(NC(=O)c2oc3ccc(S(=O)(=O)N4CCC5(CC4)OCCO5)cc3c2C)c1C | 30%
Cc1ccc(NC(=O)Cn2c(=O)n(CCC(=O)NCc3ccc4c(c3)OCO4)c(=O)c3sccc32)c(C)c1 | -11%
CCOc1ccc(-c2nc(SCC(=O)Nc3ccc(C)c(C)c3)n3[nH]c(=O)cc3n2)cc1 | -23%
CCOC(=O)c1c(C)[nH]c(C)c1S(=O)(=O)NCC(=O)N1CCN(c2ccccc2F)CC1 | -9%
CCOC(=O)C1CCN(C(=O)C2CCN(C3=NS(=O)(=O)C(c4ccc(C)c(C)c4)=C3C)CC2)CC1 | 2%
COc1cccc(N2CCN(C(=O)c3cccn3-c3nnc(N4CCCC4)s3)CC2)c1 | 3%
COc1ccccc1C(=O)Nc1nc2nc(C)cc(=O)n2[nH]1 | 11%
Cc1cc(NS(=O)(=O)c2ccc(NC(=O)COc3ccccc3Br)cc2)no1 | -29%
CN(C)c1oc(-c2ccc(COc3ccccc3)o2)nc1C#N | -23%
COc1ccc(CNC(=O)Cn2nnc(-c3ccccc3F)n2)cc1 | -4%

Arranged by length of the SMILES (ascending): some entries from above
SMILES | miR-21 FLuc
CCOc1ccc(NC(=O)CCn2cccn2)cc1 | -27%
CCOc1ccccc1C(=O)Nc1c(NC)c2ccccc2oc1=O | -9%
COc1ccccc1C(=O)Nc1nc2nc(C)cc(=O)n2[nH]1 | 11%
COc1ccccc1CNC(=O)c1cccc(N2CCCS2(=O)=O)c1 | -10%
COCCNC(=O)CCC(=O)N1Cc2cccc(OC)c2Oc2ncccc21 | -7%
COc1ccc(Cl)cc1NC(=O)CSc1nnc(C)n2c1cc1occc12 | -3%
C#CCn1c(C2CC(=O)N(c3ccc(OC)cc3)C2)nc2ccccc21 (stereo not drawn) | 4%
Cc1ccc(-n2nc(CO)c(C(=O)NC(C)CCCc3ccccc3)n2)cc1 (stereo not drawn) | 12%
COc1ccc(NC(=O)c2ccc(NC(=O)N3CCSc4ncccc43)cc2)cc1 | 0%
CCN(CC)CCCNC(=O)Cn1ncc2c3ccccc3n(Cc3ccccc3)c2c1=O | 5%
CCCSC1=NC2(CCN(C(=O)NC3CCCCC3)CC2)N=C1c1ccc(Cl)cc1 | -1%
COc1cccc(N2CCN(C(=O)c3cccn3-c3nnc(N4CCCC4)s3)CC2)c1 | 3%
Cc1coc2c(C)c3oc(=O)c(CC(=O)NCCc4ccc(Cl)cc4)c(C)c3cc12 | 1%
CCOc1ccc(-c2nc(SCC(=O)Nc3ccc(C)c(C)c3)n3[nH]c(=O)cc3n2)cc1 | -23%
Cc1ccc(C)c(N2CCN(C(=O)c3ccc(Nc4nc5ccccc5n5nnnc45)cc3)CC2)c1 | -4%
CCOC(=O)C1CCN(C(=O)C2CCN(C3=NS(=O)(=O)C(c4ccc(C)c(C)c4)=C3C)CC2)CC1 | 2%
Cc1ccc(NC(=O)Cn2c(=O)n(CCC(=O)NCc3ccc4c(c3)OCO4)c(=O)c3sccc32)c(C)c1 | -11%

From PubChem
